Compound activity deposited in PubChem by National Center for Advancing Translational Sciences (NCATS).
Menin-MLL FL inh – menin-MLL binding inhibition, fluorescein peptide. Fluorescence polarization, fluorescein-MLL peptide displacement from menin. 290,000 tested, under 10 active. AID 1766. FP activity change, % at 61.4 µM; inconclusive = falling polarisation curve, or a change in total fluorescence; inactive = total fluorescence flat and polarisation flat or rising; no compound was filed as active; the % refers to the polarisation; negative = inhibition;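 further: % of control where 0% means no effect; inhibitors lower the polarisation; unlabelled MLL peptide was the positive control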
D2 potentiator – positive allosteric modulators of human D2 dopamine receptor. AID 624464. actives 0.23% (n = 360,000). DiscoveRx D2 beta-arrestin cells, luminescence, 90 min; 100% = 57 uM dopamine signal. potentiation, % (test concentration not listed); active = potentiation of 50% or more; inconclusive = 30% to 50%; inactive = 30% or less;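 further: compound concentration not given in the record; tested on top of an EC20 dose of dopamine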
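PathHunter beta-arrestin assay in DiscoveRx D2 cells. Compounds were added with an EC20 of dopamine (50 nM final) for 90 min at 37 deg C. Luminescence was read 1 h after detection reagent, with 57 uM dopamine as the EC100 control.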
gsp antag – gsp mutant antagonism; gsp-mutant cells, cAMP HTRF, 30 min; control for the full effect not named in the record; AID 624288; Potency, µM (series often up to 76.9 µM), without a hit: top-dose activity change, negative = inhibition, usual class: inhibitors; actives 0.4% (n = 340,000); active = falling curve of any shape with a large fitted effect; inconclusive = falling curve, mostly with a smaller effect; inactive = flat or rising curve; cell line not stated here;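 further: intracellular cAMP measured with PDE inhibitor Ro 20-1724 present during compound exposure; potency means the concentration at half of the fitted maximal effect; on the % scale 0 is the no-effect control and ±100 the full control effect; nearly all actives have a fitted effect of over 65% in size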
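HTRF cAMP read-out (cAMP-d2 plus anti-cAMP antibody-K in lysis buffer, 30 min RT). Before lysis, cells are exposed to compounds with […] for 30 min at 37C in DPBS containing Ca/Mg, BSA and Tween 20.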
Sfp inh – inhibitors of Bacillus subtilis Sfp phosphopantetheinyl transferase; Q9F4F7; Biochemical Sfp PPTase activity, qHTS; actives 3.5% (n = 310,000); Potency, µM, inactives show max response, negative = inhibition, most hits filed as inhibitors; AID 1490; active means well fitted inhibition curve with a large enough effect; inconclusive means small, poorly fitted or top-dose-only effect, or another doubt; inactive means no such curve, though single readings can be large or run the other way;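 further: the enzyme is Sfp with the accession as filed and its product quenches rhodamine fluorescence; potency means the concentration at half of the fitted maximal effect; 0% = enzyme reaction without inhibitor and -100% = no enzyme wells; top concentration of the series not given in the record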
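Fluorescence-quenching assay with 15 nM Sfp, 5 uM rhodamine-CoA and 12.5 uM BHQ-2-labelled ybbR peptide in pH 7.6 Hepes/MgCl2 buffer. Enzyme was pre-incubated with compound for 15 min at room temperature. Rate was taken from the 30-min fluorescence change (525/598 nm).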
TRPV1 potentiator – human TRPV1 potentiation; Q8NER1; TRPV1-expressing cells, Fluo-8 calcium influx, capsaicin EC20 potentiation; host cell line not named in the record; control for the full effect not named in the record; potentiation, % at 8.33 µM; actives 0.02% (n = 320,000); AID 540277; active means potentiation above 80%; inconclusive means 30% to 80%; inactive means below 30%; further: 0% is about no effect
Target sequence (Q8NER1 whole entry, looked up): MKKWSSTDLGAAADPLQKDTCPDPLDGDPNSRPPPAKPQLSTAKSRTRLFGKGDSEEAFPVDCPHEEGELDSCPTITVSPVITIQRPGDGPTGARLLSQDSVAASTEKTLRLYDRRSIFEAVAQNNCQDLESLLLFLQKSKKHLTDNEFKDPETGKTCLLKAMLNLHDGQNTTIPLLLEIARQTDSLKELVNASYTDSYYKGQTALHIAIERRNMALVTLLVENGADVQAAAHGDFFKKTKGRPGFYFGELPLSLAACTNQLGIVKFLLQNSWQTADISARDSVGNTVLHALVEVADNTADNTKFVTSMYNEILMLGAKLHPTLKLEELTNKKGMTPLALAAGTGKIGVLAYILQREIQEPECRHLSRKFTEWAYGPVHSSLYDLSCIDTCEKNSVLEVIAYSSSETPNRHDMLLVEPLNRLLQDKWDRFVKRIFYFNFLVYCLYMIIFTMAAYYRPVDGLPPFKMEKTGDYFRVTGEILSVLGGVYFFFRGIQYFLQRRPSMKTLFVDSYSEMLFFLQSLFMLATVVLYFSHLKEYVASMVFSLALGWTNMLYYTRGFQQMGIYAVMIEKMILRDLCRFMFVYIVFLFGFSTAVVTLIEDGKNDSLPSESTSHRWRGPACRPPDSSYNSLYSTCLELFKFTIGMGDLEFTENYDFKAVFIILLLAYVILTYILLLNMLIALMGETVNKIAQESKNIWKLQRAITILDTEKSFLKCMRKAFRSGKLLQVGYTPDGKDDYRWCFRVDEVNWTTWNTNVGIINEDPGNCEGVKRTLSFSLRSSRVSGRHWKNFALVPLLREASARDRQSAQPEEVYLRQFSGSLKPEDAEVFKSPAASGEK
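Cells expressing TRPV1 were dye-loaded with Fluo-8 and read kinetically: 10 s baseline, 3 min after compound (agonist portion), then 2 min after EC20 capsaicin (allosteric enhancer portion). Calcium-bound dye fluorescence at 480/520 nm.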
gsp agonist – activates gsp, the McCune-Albright syndrome mutation; gsp mutant cells, cAMP HTRF, 30 min; control for the full effect not named in the record; Potency, µM (series often up to 76.9 µM), for inactives: at the highest dose activation (cAMP increase), most hits filed as activators; actives 0.13% (n = 340,000); AID 624287; active = well fitted activation curve with a large enough effect; inconclusive = small, poorly fitted or top-dose-only effect, or another doubt; inactive = no such curve, though single readings can be large or run the other way; cell line not stated here;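 further: phosphodiesterase inhibitor Ro 20-1724 added with compounds to block cAMP breakdown; potency means the concentration at half of the fitted maximal effect; nearly all actives have a fitted effect of over 60% in size; about a fifth of the inactives were tested at one dose only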
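Cells in DMEM/10% FBS with G418 were pretreated with compounds in DMSO plus […] (300 uM stock) for 30 min at 37C. cAMP was measured by HTRF (cAMP-d2 plus anti-cAMP antibody-K) after 30 min at room temperature.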
ClpP mod – qHTS Assay for Activators of ClpP; purified B. subtilis ClpP, FRET peptide cleavage, 20 min; actives 1.9% (n = 340,000); ATP-dependent Clp protease proteolytic subunit (Bacillus subtilis (strain 168)), P80244; Potency, µM (doses to about 57.5 µM), without a hit: at the top dose activity change, negative = active; active = well fitted falling curve with a large enough effect; inconclusive = small, poorly fitted or top-dose-only effect; inactive = no such curve, though single readings can be large or run the other way; further: potency means the concentration at half of the fitted maximal effect; the source files actives as falling curves though it sought activators and does not explain the sign; nearly all actives have a fitted effect of over 65% in size; many hits overshoot -100%
Target sequence (P80244 whole entry, looked up): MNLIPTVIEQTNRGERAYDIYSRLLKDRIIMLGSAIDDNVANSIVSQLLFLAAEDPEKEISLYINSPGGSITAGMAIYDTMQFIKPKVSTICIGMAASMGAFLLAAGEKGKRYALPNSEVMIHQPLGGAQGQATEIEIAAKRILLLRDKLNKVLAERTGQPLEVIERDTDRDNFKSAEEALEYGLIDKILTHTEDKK
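FRET quenching reversal measured ClpP activation: 10 microg/mL B. subtilis ClpP at pH 8 with the FRET-FV decapeptide, read at 430 nm after 320 nm excitation. The 20-min minus 0-min signal was scaled between DMSO/no-enzyme wells and ADEP (5.8 microM final).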
* = called active by the depositor; u = inconclusive; x = no result given; & = joins results of further samples; [ ] = remark or other dose. Not a hit list; 5.1% or so of the library scored in one or more.

SMILES	Menin-MLL FL inh	D2 potentiator	gsp antag	Sfp inh	TRPV1 potentiator	gsp agonist	ClpP mod
CCN1C(=O)C(=O)N(CC(=O)c2cc(C)n(C3CC3)c2C)C1=O	x	-7	-4%	x	-13	17%	1.0%
Cn1cc(SCC(=O)N2CCCc3ccccc32)c2ccccc21	2.5	-5	u	-22%	-14	-33%	2.0%
COC1=Nc2ccccc2/C=C\c2ccccc21	x	-4	x	x	x	-2%	0.9%
CN(C)c1nc(N)c([N+](=O)[O-])c(NCc2ccccc2)n1	-0.5	-6	7%	20%	15	u	-2.9%
CCNC(=S)Nc1cccc(S(=O)(=O)NC2=NCCC2)c1	-0.3	-5	0%	3%	18	-2%[15.4 µM]	x
CCN(CC(=O)Nc1c(F)cccc1F)C(=O)C1CC1	x	-1	20%	x	-11	-34%[inhibitor]	1.6%
C/C=C/Cn1c(SCc2ccccc2)nc2c1c(=O)[nH]c(=O)n2C	1.3	-12	7%[15.4 µM]	u	-11	-10%	-0.5%
CCOC(=O)C(Oc1ccc(=O)[nH]n1)C(C)=O (stereo not given)	0.4	-11	9%	15%	28	1%	-2.7%
CC(C)CCn1c(=O)c2ccccc2n2c(CCl)nnc12	-4.2	-31	-3%	1%	3	-6%[15.4 µM]	8.6%
N#Cc1c(N2CCN(C(=O)c3ccco3)CC2)nc(-c2ccccc2)c2c1CCCC2	1.0	-12	-16%	45µM*	12	2%	14µM*
CCN(c1ccccc1)S(=O)(=O)c1ccc(Cl)nc1	-0.1	-6	4%	-7%	u	-13%[15.4 µM]	x
O=C1c2ccc([N+](=O)[O-])cc2C(=O)N1c1ccc([N+](=O)[O-])cn1	x	-3	1%	x	x	7%	0.7%
O=C(c1c(F)cccc1F)N1CCN(c2ncc(Br)cn2)CC1	-7.7	-2	10%	-8%	-5	1%[15.4 µM]	-1.2%
COC(=O)c1ccc(CSc2nc3c(cnn3-c3ccccc3)c(=O)[nH]2)o1	1.5	11	-16%	12%	11	u	-0.1%
C/C(=N\NC(=O)c1ccccc1)c1ccccc1F	-2.4	0	3%	5%	-3	0%	x
CC(=NNC(=O)c1ccncc1)c1cc(Cl)ccc1Cl	x	-1	-14%	x	x	-13%	x
CC(C)(C)OC(=O)n1cc(/C=N/NC(=O)c2ccco2)c2ccccc21	-0.7	4	-28%	8%	-2	1%	-2.1%
CN(Cc1nc(-c2ccccn2)no1)S(=O)(=O)c1ccc(Br)cc1	0.3	-8	7%	-4%	4	11%	-23%
O=C(Cn1c2c(c(=O)n3ncnc13)CCC2)N/N=C/c1cccs1	2.8	-19	3%	19%	1	12%	-3.1%
O=C(CN1CCN(S(=O)(=O)N2CCCCC2)CC1)Nc1cc(Cl)ccc1Cl	-1.9	-3	2%	0%	0	u	x
COCCN(C(=O)c1ccc2c(c1)C(=O)N(c1ccccc1Cl)C2=O)c1c(N)n(CC(C)C)c(=O)[nH]c1=O	x	-2	9%	x	x	-10%	-0.9%
CCC(C)C(=O)Nc1nnc(SCC(=O)NC2CCCCC2)s1 (stereo not given)	-3.8	0	-21%	29%	-4	-19%	x
CCc1ccc(/C=C2/C(=O)N(CC)C(=S)N2C)s1	4.8	-5	-15%	-21%	-8	-50%[inhibitor]	-0.2%
COc1cccc(CN2CCNC(=O)C2CC(=O)N(C)CCc2ccccn2)c1 (stereo not given)	-2.4	-1	-3%	9%	7	13%[15.4 µM]	x
CCOc1ccccc1-c1nnc(SCC(=O)Nc2ccccc2)o1	-0.8	-30	5%	19%	-23	-4%	-1.9%
CCN(C(=O)COC(=O)CCS(=O)(=O)c1ccc(C)cc1)C1CCS(=O)(=O)C1 (stereo not given)	x	-26	-4%	4%	2	-4%[15.4 µM]	-0.1%
CCN(CC)C(=O)c1nc[nH]c1C(=O)N(C)Cc1ccccc1	x	-8	11%	x	2	x	-0.2%
COc1cccc(CNC(=O)Cn2ncn3cccc3c2=O)c1OC	1.2	-4	-5%	9%	-3	-42%[inhibitor]	-1.9%
O=C(CSc1nnc(COc2ccccc2)o1)Nc1nccs1	5.7	-3	-6%	11%	23	-12%	-4.3%
O=CN(/C=C1\Sc2ccccc2C1=O)Cc1ccccc1	10	-4	-15%	4%	-22	-3%	1.1%

Three entries picked at random from the list so far, as already listed:
SMILES	Menin-MLL FL inh	D2 potentiator	gsp antag	Sfp inh	TRPV1 potentiator	gsp agonist	ClpP mod
COc1cccc(CNC(=O)Cn2ncn3cccc3c2=O)c1OC	1.2	-4	-5%	9%	-3	-42%[inhibitor]	-1.9%
COc1cccc(CN2CCNC(=O)C2CC(=O)N(C)CCc2ccccn2)c1 (stereo not given)	-2.4	-1	-3%	9%	7	13%[15.4 µM]	x
O=C(CN1CCN(S(=O)(=O)N2CCCCC2)CC1)Nc1cc(Cl)ccc1Cl	-1.9	-3	2%	0%	0	u	x

Among those listed so far, two have bromine.
SMILES	Menin-MLL FL inh	D2 potentiator	gsp antag	Sfp inh	TRPV1 potentiator	gsp agonist	ClpP mod
O=C(c1c(F)cccc1F)N1CCN(c2ncc(Br)cn2)CC1	-7.7	-2	10%	-8%	-5	1%[15.4 µM]	-1.2%
CN(Cc1nc(-c2ccccn2)no1)S(=O)(=O)c1ccc(Br)cc1	0.3	-8	7%	-4%	4	11%	-23%

The results go on:
SMILES	Menin-MLL FL inh	D2 potentiator	gsp antag	Sfp inh	TRPV1 potentiator	gsp agonist	ClpP mod
Cc1cc2c(cc(C(=O)NCCCN3CCOCC3)n2Cc2ccc(Cl)cc2)o1	2.1	-7	1%	-61%	5	-8%	-9.3%
CC(OC(=O)CCCOc1ccccc1)C(=O)NC(N)=O (stereo not given)	-2.7	0	13%	-10%	-15	-6%	-1.4%
CCC(c1nnnn1CCOC)N1CCN(c2cccc(C(F)(F)F)c2)CC1 (stereo not given)	0.2	-13	9%	15%	7	-1%	-1.7%
C=CCOc1c(Br)cc(/C=N\n2nnnc2N)cc1OC	-0.3	-5	6%	25%	4	-46%[inhibitor]	-6.3%
CN(C)CCNC(=O)COc1ccc(C23CC4CC(CC(C4)C2)C3)cc1	-0.9	-17	14%	-7%	-6	-5%	x
CCOc1ccccc1C(=O)Nc1cccc2ccccc12	2.2	-1	-17%	13%	u	-19%	x
[O-][n+]1onc2c1C(N1CCOCC1)CCC2N1CCOCC1 (stereo not given)	-0.7	-10	4%	24%	7	-9%	-2.5%
COc1cccc(CNC(=O)C2CCC(CNS(=O)(=O)c3cccc4cccnc34)CC2)c1 (stereo not given)	x	-7	-11%	1%	-14	-4%	0.5%
O=C(CN1C(=O)NC2(CCCCCC2)C1=O)NC1CCCCCCC1	1.0	-5	3%	6%	-7	u	0.5%
CCOC(=O)Cn1c(-c2ccccc2)ccc(C#N)c1=O	0.2	-27	x	7%	25	-4%[15.4 µM]	x
CSCCC(NS(=O)(=O)c1ccccc1F)C(=O)OCc1ccccc1Cl (stereo not given)	1.8	-4	-4%	-9%	1	-34%[inhibitor]	4.2%
Cc1ccc(NC(=O)CN(C)C(=O)CCC(=O)N2CCOCC2)cc1	x	2	-4%	x	0	-9%	0.7%
Cc1ccc(S(=O)(=O)N(CC(=O)NCc2ccncc2)Cc2ccc(F)cc2)cc1	-0.7	-3	-8%	16%	-28	-14%[15.4 µM]	x
CCN(CC)CCNC1=CC(=O)OC12CCCCC2	5.2	-3	-4%	30%[activator]	4	17%	-2.8%
COc1cc(/C=N/Nc2cccc(C)c2)cc(Br)c1O	-0.8	-10	6%	-1%	8	21%[15.4 µM]	x
N#Cc1ccccc1NC(=O)COC(=O)c1ccc(S(=O)(=O)N2CCCC2)cc1	4.7	-7	-9%	3%	24	4%	-1.7%
Cc1cccc(N=NC(=S)NNc2cccc(C)c2)c1	x	6	-3%	x	x	-1%	3.4%
O=C(CCc1nnc2ccc(N3CCCCC3)nn12)NCC1CCN(Cc2ccc(F)cc2)CC1	-4.5	-16	6%	7%	2	18%	-3.2%
O=C(CN1CCN(c2ccccc2F)CC1)N1N=CCC1c1ccccc1 (stereo not given)	x	-3	6%	15%	30	0%	-0.6%
CC(=O)N1CCc2ccc(NC(=O)c3c(-c4c(Cl)cccc4Cl)noc3C)cc21	0.6	-4	-30%	14%	6	6%[15.4 µM]	-3.0%
O=C(CO/N=C/c1ccc(OC(F)F)cc1)N1CCc2ccccc21	5.9	-5	6%	-4%	-10	-2%	-3.5%
CSc1ccc2c(c1)C(N1CCN(C)CC1)Cc1ccccc1S2 (stereo not given)	2.6&4.3&-0.6&7.8	-29&-44	10%&13%	-20%&-3%&-16%	-4	0%	-1.3%&3.0%
Cc1cc(C)cc(C(=O)Nc2cccc(NC(=O)c3ccco3)c2)c1	x	-16	-22%	2%	-9	18%	-1.0%
O=C(c1ccc(C(F)(F)F)cc1)C1CCCN(C(=O)CN2C(=O)CSC2=O)C1 (stereo not given)	-6.6	5	1%	5%	5	0%	x
Cc1nn(-c2ccccc2)c(C)c1/C=N/NC(=O)CSc1nc2ccccc2c(=O)n1-c1ccc(Br)cc1	3.2	20	-14%	-2%	-48	-11%	-1.0%
COc1ccc(CCNC(=O)CCN2C(=O)c3ccccc3C2=O)cc1OC	0.0	x	x	15%	2	x	x
CCOC(=O)N1CCN(Cc2nc(-c3ccc(C)cc3)no2)CC1	1.6	13	-11%	13%	-6	-34%[inhibitor]	1.2%
CCOCCCNC(=O)CN1CCN(c2ccc(F)cc2)CC1	-1.1	-2	2%	u	5	-33%	-4.1%
CSCCC(NC(=O)C1CCCC1)c1nnc2ccccn12 (stereo not given)	1.7	-8	3%	18%	14	u	-3.9%
O=C1NCC(COc2ccc(Cl)cc2)O1 (stereo not given)	-2.3	-2	11%	0%	-3	-44%	x
O=C(O)c1ccccc1NC(c1ccccc1)c1ccc2cccnc2c1O (stereo not given)	x	-35	-4%	x	x	-27%	150%
C=CCC1(O)C(=O)N2C(=C1C(=O)OCC)c1ccc3ccccc3c1CC2(C)C (stereo not given)	-1.5	-3	-20%	7%	x	22%	-0.1%
